Screens deposited in PubChem by National Center for Advancing Translational Sciences (NCATS).
Six1-Eya2 blk: inhibitors of human Six1/Eya2 interaction | 0.56% of 360,000 active | AID 651725 | AlphaScreen GST-Six1/His-Eya2 binding, biochemical; active compounds read low; control for the full effect not named in the record | activity change, % (concentration not given with the values); in the data active = activity change below about -65%; inconclusive = about -30% to -65%; inactive = above about -30%; further: on the % scale 0 is the no-effect control and ±100 the full control effect
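AlphaScreen with GST-Six1 and His-Eya2 (5X mix: 250 nM and 500 nM), glutathione donor and nickel acceptor beads; buffer 50 mM Tris pH 8.0, 300 mM NaCl, 1 mM TCEP; 1 h at 37 C in the dark.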
CtBP-E1A blk: CtBP/E1A binding inhibition | AlphaScreen GST-E1A/His-CtBP binding, 1536-well; active compounds read low; control for the full effect not named in the record | activity change, % (concentration not given with the values) | 0.49% of 340,000 active | AID 651724; in the data active means activity change below about -65%; inconclusive means about -30% to -65%; inactive means above about -30%; further: on the % scale 0 is the no-effect control and ±100 the full control effect
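In 5 uL wells, 23 nL compound meets equimolar GST-E1A and His-CtBP (5X stock 125 nM each) for 2 h, 37 °C. Beads (5X, 50 ug/mL) then 1 h, 37 °C, dark.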
TRPML1 agonist: human mucolipin-1 channel agonism. activation, % (concentration not given with the values). TRPML1-expressing cells, Ca2+ dye fluorescence, FDSS; host cell line not named in the record; reference of the full effect not given here. AID 624414. Q9GZU1. 0.12% of 410,000 active; in the data active = activation above about 50%; inconclusive = about 30% to 50%; inactive = below about 30%; further: 0% is about no effect; the text of the record puts the active cut at 80%
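Calcium fluorescence on an FDSS kinetic reader gave the read-out. Tet-induced TRPML1-DL cells were plated overnight, dye-loaded (Ca8 with quencher, 45-90 min, room temperature, dark), then read 110 s after compound addition, and again 110 s after 4uM final 54-4 (EC80).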
D2 PAM: human D2 receptor positive allosteric modulation; P14416; DiscoveRx D2 beta-arrestin cells, luminescence, 90 min; 100% = 57 uM dopamine signal; potentiation, % (test concentration not listed); 0.23% of 360,000 active; AID 624464; active = potentiation of 50% or more; inconclusive = 30% to 50%; inactive = 30% or less;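 further: compound concentration not given in the record; tested on top of an EC20 dose of dopamine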
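D2 cells co-treated with compound plus 50 nM dopamine (EC20) for 90 min at 37 deg C to detect potentiation. Beta-arrestin recruitment was read as enzyme-fragment luminescence after 1 h at ambient temperature. Full response was set by 57 uM dopamine.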
TRPV1 PAM: enhances activation of the human vanilloid receptor TRPV1; TRPV1-expressing cells, Fluo-8 calcium influx, capsaicin EC20 potentiation; host cell line not named in the record; control for the full effect not named in the record; potentiation, % at 8.33 µM; Q8NER1; 0.02% of 320,000 active; active means potentiation above 80%; inconclusive means 30% to 80%; inactive means below 30%; further: 0% is about no effect
Target sequence (Q8NER1 whole entry, looked up): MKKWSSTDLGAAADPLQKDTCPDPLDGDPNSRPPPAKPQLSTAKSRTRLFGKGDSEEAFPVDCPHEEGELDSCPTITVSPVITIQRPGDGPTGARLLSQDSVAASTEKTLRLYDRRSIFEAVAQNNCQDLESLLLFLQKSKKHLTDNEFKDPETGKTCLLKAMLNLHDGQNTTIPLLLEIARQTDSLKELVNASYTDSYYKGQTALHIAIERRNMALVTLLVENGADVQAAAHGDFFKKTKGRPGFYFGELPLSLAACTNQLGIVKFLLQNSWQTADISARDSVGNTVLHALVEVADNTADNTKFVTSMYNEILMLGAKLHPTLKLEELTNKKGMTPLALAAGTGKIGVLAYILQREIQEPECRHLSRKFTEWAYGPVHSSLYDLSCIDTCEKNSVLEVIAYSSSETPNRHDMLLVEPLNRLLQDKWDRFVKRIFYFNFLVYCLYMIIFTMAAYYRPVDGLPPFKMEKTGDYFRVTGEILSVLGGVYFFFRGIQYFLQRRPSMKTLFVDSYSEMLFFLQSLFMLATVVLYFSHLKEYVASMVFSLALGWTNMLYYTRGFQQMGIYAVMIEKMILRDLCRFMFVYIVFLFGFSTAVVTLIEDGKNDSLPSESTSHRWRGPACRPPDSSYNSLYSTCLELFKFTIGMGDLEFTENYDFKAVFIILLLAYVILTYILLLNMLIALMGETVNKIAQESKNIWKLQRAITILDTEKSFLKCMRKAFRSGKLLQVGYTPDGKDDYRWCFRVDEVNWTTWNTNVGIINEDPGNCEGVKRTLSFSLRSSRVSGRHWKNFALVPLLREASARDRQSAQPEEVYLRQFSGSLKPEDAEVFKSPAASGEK
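Cells expressing TRPV1 were dye-loaded with Fluo-8 and read kinetically: 10 s baseline, 3 min after compound (agonist portion), then 2 min after EC20 capsaicin (allosteric enhancer portion). Calcium-bound dye fluorescence at 480/520 nm.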
TRPML1 blocker: human mucolipin-1 channel inhibition; Q9GZU1; TRPML1-inducible cells, Ca2+ dye fluorescence, FDSS; active compounds read low; inhibition of EC80 agonist-evoked calcium signal; activity change, negative = inhibition, % (test concentration not listed); 0.02% of 390,000 active; in the data active means activity change below about -50%; inconclusive means about -30% to -50%; inactive means above about -30%;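 further: stimulus is agonist 54-4 at its EC80 concentration; on the % scale 0 is the no-effect control and ±100 the full control effect; compound concentration not given in the record; the text of the record puts the active cut at -80%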
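Calcium fluorescence in TRPML1-DL cells induced overnight with Tet: a 110 s read after compound pin addition, then a 110 s antagonist read after challenge with 54-4 at 4 uM final (EC80).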
Active calls of the source: *; ? = inconclusive; · = not tested or not shown; & = joins results of further samples. Compounds were not picked by outcome; 0.95% or so of the library scored in one or more.

SMILES	Six1-Eya2 blk	CtBP-E1A blk	TRPML1 agonist	D2 PAM	TRPV1 PAM	TRPML1 blocker
COc1cc(OC)cc(-c2c(C#Cc3ccsc3)c3cc(-c4ccc5[nH]ccc5c4)ccc3n2C)c1	-5	-2	-0.7	-8	-8	25
CN(Cc1cccnc1)Cc1cn(Cc2ccccc2)nc1-c1ccc2c(c1)OCO2	-9	-1	1.8	-20	-2	4
COC(=O)C12CC3CC(C1)CC(n1cnc(Cl)n1)(C3)C2	1	7	-1.0	4	10	-14
COc1ccc2nc(NC(=O)C3COc4ccccc4O3)sc2c1 (centres undefined)	-2	-4	1.1	-2	·	-2
Cc1cccc(CCNC(=O)Cn2ncc3c([nH]c4ccccc43)c2=O)c1	0	3	-0.6	-8	1	-7
CCOc1ccc(C2C(C#N)=C(N)N(N(C)C)C3=C2C(=O)CC(C)(C)C3)cc1 (centres undefined)	6	0	1.8	-4	-18	10
CC(=O)N1c2ccc(S(=O)(=O)NCCC(=O)NC3CCC(C)CC3)cc2CC1C (centres undefined)	0	-1	0.1	-10	-3	-5
N#Cc1cccc(S(=O)(=O)Nc2c(NC3CCCCC3)c3ccccc3oc2=O)c1	-7	-3	1.0	-1	-13	-21
COc1ccccc1C(=O)NCC(=O)OCc1csc(-c2ccccc2)n1	2	0	-0.2	-10	11	34
COc1cccc(NC(=O)Nc2cc(NC(=O)Nc3cccc(OC)c3)c(C)nc2C)c1	-9	-3	-0.1	-20	16	-10
COC(=O)c1sccc1NC(=O)COc1ccc(Cl)cc1	3	-1	-0.1	-10	8	-11
COc1ccc(/C=C2\SC(=S)N(CCC(=O)Nc3ccccc3C(=O)O)C2=O)cc1	-18	-27	1.9	-5	-33	24
CCOC(=O)C1=CCN(S(=O)(=O)c2ccccc2C)C1c1cccc(C)c1 (centres undefined)	12	8	-0.3	-1	·	·
COc1ccc(-c2cc(C(F)(F)F)n3nc(C(=O)N4CCOCC4)nc3n2)cc1	-3	-1	0.3	-9	4	66
COc1ccc(CCNC(=O)COc2nsnc2N2CCOCC2)cc1OC	3	2	-1.3	2	-28	0
CC(C)(C)OC(=O)N(CCc1ccccc1)Cc1ccc(OCc2cccc(NC(=O)C3CCCC3)c2)cc1	-1	3	0.2	-2	·	5
COc1ccc(Cn2c(=O)c3c(nc(NCCO)n3C)n(C)c2=O)cc1	?	?	-0.8	-22	-3	59
COc1ccccc1NC(=O)CSc1nc(O)cc(=O)n1C	0	-1	2.7	-4	5	-20
COC(=O)[C@H](C)NC(=O)N1CCC(Cc2ccccc2)CC1	4	4	·	-16	-2	·
COCC(=O)N(C)C[C@H]1N[C@@](Cc2ccccc2)(C(=O)OC)[C@H]2C(=O)N(C)C(=O)[C@@H]12	0	4	-0.4	·	·	-8
COc1ccc(/C=N/NC(=O)Cn2c(Cc3ccc(OC)c(OC)c3)nc3ccccc32)cc1	-16	-8	0.8	-13	21	-25
O=C(NCCN1CCC(n2c(=O)[nH]c3ccccc32)CC1)c1ccc(F)c(C(F)(F)F)c1	-9	-1	-0.4	·	·	·
COc1ccc(N2CCN(C3CCCN(Cc4ccc(F)cc4)C3)CC2)cc1 (centres undefined)	-17	-24	0.0	-24	-3	11
CN(C(=O)COC(=O)C1CCN(S(=O)(=O)c2ccc3c(c2)OCCO3)CC1)c1ccccc1	0	0	0.5	-6	1	-8
CC1CN(C)C(C)CC1OC(=O)C(c1ccccc1)c1ccccc1 (centres undefined)	-8	-5	1.0	-17	·	-8
COc1cccc2sc(N(CCN(C)C)C(=O)/C=C/c3cccs3)nc12	-3	3	-0.6	-22	20	-9
COc1ccc(C(CNC(=O)CCC(=O)c2ccc(C)s2)N2CCOCC2)cc1 (centres undefined)	0	·	-0.6	-2	0	10
O=C(N1CCN(c2ccccc2F)CC1)C1(S(=O)(=O)c2ccc(Cl)cc2)CC1	-8	3	-0.4	-13	-4	5
CCC(C)NC(=O)C1CCN(S(=O)(=O)c2ccc3nc4c(c(C(=O)O)c3c2)CCCCC4)CC1 (centres undefined)	23	20	-0.2	-7	-3	-4
COc1ccc(-c2csc(N3CCN(Cc4ccc5c(c4)OCO5)CC3)n2)cc1	-6	-9	0.3	-4	-7	19

Taken from above.
D2 PAM, `COc1ccc(/C=N/NC(=O)Cn2c(Cc3ccc(OC)c(OC)c3)nc3ccccc32)cc1` stands at -13
Six1-Eya2 blk, `CC1CN(C)C(C)CC1OC(=O)C(c1ccccc1)c1ccccc1` (centres undefined) stands at -8
TRPML1 blocker, `COc1ccc(C(CNC(=O)CCC(=O)c2ccc(C)s2)N2CCOCC2)cc1` (centres undefined) stands at 10

(cont.)
SMILES	Six1-Eya2 blk	CtBP-E1A blk	TRPML1 agonist	D2 PAM	TRPV1 PAM	TRPML1 blocker
Cc1ccccc1C(=O)Nc1ccc(S(=O)(=O)NCC2CCCO2)cc1 (centres undefined)	0	5	-0.6	-11	·	-6
CCN1C(=O)N/C(=C/c2ccc(C)o2)C1=O	-3	8	0.3	-6	-3	1
CC(C)CN(C(=O)COC(=O)c1ccc(Br)o1)c1c(N)n(Cc2ccccc2)c(=O)[nH]c1=O	0	1	-1.0	17	-3	10
CCOCCCN(C(=O)Cn1nnc(-c2ccc(C)o2)n1)C(C(=O)NC1CCCC1)c1ccc(C)o1 (centres undefined)	-12	-8	-0.4	-1	-11	18
CC(C)[C@H](NS(=O)(=O)c1ccccc1)C(=O)OCC(=O)NCc1ccc2c(c1)OCO2	5	-3	0.9	0	·	8
CCN(Cc1ccccc1)C(=O)CC1Oc2ccccc2NC1=O (centres undefined)	0	6	-0.7	-5	-2	25
CC(C)(C)OC(=O)NCCCC[C@@H](C(=O)NCCCCCCCCCCC(=O)N1CCN(C(=O)OC(C)(C)C)CC1)n1cc(CCCC(=O)O)nn1	-1	5	0.6	5	?	-3
CC1CCN(C(=O)CN2C(=O)C(=O)c3ccccc32)CC1	1	2	-0.2	-21	-1	5
COc1ccc(-c2ccc(CN3C(C)C(=O)N(Cc4cn(CC5CCCCC5)nn4)CCS3(=O)=O)cc2)cc1 (centres undefined)	-3	-1	0.2	1	·	4
CCNC(=O)NC(=O)C(C)Sc1ncc(C(F)(F)F)cc1Cl (centres undefined)	0	0	1.7	-6	-6	-14
OC(c1ccc(Cl)c(Cl)c1)c1ncc(-c2cccc(F)c2)[nH]1 (centres undefined)	-6	-15	-1.2	-16	·	·
Cc1cnc(NC(=O)CCCSc2nc3ccccc3s2)s1	1	8	-0.4	0	-5	-8
COc1ccc(NC(=O)C2(C)CCN2C(=O)CC2CCCC2)cc1OC (centres undefined)	6	6	-1.3	0	·	·
Cc1nc2nc(CSc3nc4ccccc4s3)cc(=O)n2[nH]1	-2	-1	0.1	2	22	-4
CSc1ncc(Cl)c(C(=O)Nc2ccc(NC(C)=O)cc2)n1	-8	-5	-1.0&-0.7	-9	-16	3&-9
Cn1c(SCC(=O)N2CCCC2)nnc1-c1cnccn1	3	·	0.8	1	3	13
C#CCN(C[C@@H]1[C@@H](OC(=O)NCC2CCCCC2)[C@@H](OC(=O)NCC2CCCCC2)Cn2c(=O)n(CCCCCC)c(=O)n21)S(=O)(=O)c1ccc(C)cc1	4	4	0.1	-3	·	11
Cc1ccc(NC(=O)COC(=O)c2ccc([N+](=O)[O-])s2)c(C)c1	-2	-12	1.0	0	-4	7
COC(=O)Nc1ccc(SCC(=O)c2ccc(Cl)cc2)cc1	2	0	3.0	-2	-15	-14
COc1ccc(/C=C/c2cc(O)cc(OC3OC(CO)C(O)C(O)C3O)c2)cc1 (centres undefined)	3	-24	0.3	-8	·	-2
Cc1cc(C)n(C(N)=NC(=O)c2ccc([N+](=O)[O-])cc2)n1	-9	·	-0.1	-14	-5	4
CCOC(=O)NNc1ccc2nonc2c1[N+](=O)[O-]	?	?	-0.4	-12	15	-7
Cc1cccc(OCC(=O)Nc2ccc3c(c2)C(=O)NC3=O)c1	-4	·	-0.1	-6	-42	15
COCc1nc2oc3ccc(C)cc3c(=O)c2cc1C(=O)OC	2	-5	-0.9	-8	6	-3
Clc1ccc2nc(-c3ccccc3)c(Cc3ccccc3)n2c1	-3	4	-0.1	5	·	8
CC(C)(C)NC(=O)C(c1ccncc1)N(C(=O)c1csnn1)C1CC1 (centres undefined)	6	12	-0.9	1	1	6
O=C(CN1C(=O)S/C(=C\c2ccccc2F)C1=O)NCCCn1ccnc1	-14	?	-0.9	-6	-4	9
COCCCNC(=O)C1CCCN(S(=O)(=O)c2cccc3nsnc23)C1 (centres undefined)	-7	-12	-0.7	-6	-5	-24
Cc1cccc(C)c1NC(=O)CN1CCc2ccccc2C1	-5	0	3.8	-7	·	-8
O=C(CCCn1c(=O)oc2ccccc21)N1CCN(c2ccc(F)cc2)CC1	-1	0	-0.6	-3	-2	8
CCN(c1cccc(C)c1)S(=O)(=O)c1ccc(-c2cc(C)no2)s1	17	·	3.3	-10	19	-4
COC(C[C@H]1O[C@H]1[C@@H](O)[C@H](C)OCc1ccccc1)OC	0	·	-0.6	-3	10	-9
CCCCOc1ccc(NC2=NC3(CCCC3)N=C(N)N2)cc1	-4	-9	-0.7	-14	-9	-7
COc1cccc(/C=C(\CC(=O)O)c2nc3ccccc3s2)c1	4	-1	0.5	-1	11	-24
Cc1ccc(NC(=O)CN(C)C(=S)NC2CC2)cc1	0	3	0.0	-2	5	-4

Entries shown so far that contain fluorine, in the order listed:
SMILES	Six1-Eya2 blk	CtBP-E1A blk	TRPML1 agonist	D2 PAM	TRPV1 PAM	TRPML1 blocker
COc1ccc(-c2cc(C(F)(F)F)n3nc(C(=O)N4CCOCC4)nc3n2)cc1	-3	-1	0.3	-9	4	66
O=C(NCCN1CCC(n2c(=O)[nH]c3ccccc32)CC1)c1ccc(F)c(C(F)(F)F)c1	-9	-1	-0.4	·	·	·
COc1ccc(N2CCN(C3CCCN(Cc4ccc(F)cc4)C3)CC2)cc1 (centres undefined)	-17	-24	0.0	-24	-3	11
O=C(N1CCN(c2ccccc2F)CC1)C1(S(=O)(=O)c2ccc(Cl)cc2)CC1	-8	3	-0.4	-13	-4	5
CCNC(=O)NC(=O)C(C)Sc1ncc(C(F)(F)F)cc1Cl (centres undefined)	0	0	1.7	-6	-6	-14
OC(c1ccc(Cl)c(Cl)c1)c1ncc(-c2cccc(F)c2)[nH]1 (centres undefined)	-6	-15	-1.2	-16	·	·
O=C(CN1C(=O)S/C(=C\c2ccccc2F)C1=O)NCCCn1ccnc1	-14	?	-0.9	-6	-4	9
O=C(CCCn1c(=O)oc2ccccc21)N1CCN(c2ccc(F)cc2)CC1	-1	0	-0.6	-3	-2	8
